# Screening data deposited in PubChem by several laboratories.
# UUG fidelity = modulators of yeast start codon fidelity, primary screen, whole organism, S. cerevisiae, single point, plate reader; 350,000 compounds, 0.13% hits; activity score, % at 18.7 µM; S. cerevisiae UUG-firefly luciferase reporter, luminescence/redox ratio;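 active = replicate mean at a twofold rise or more, about +100% in these data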;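 also: firefly luciferase made from a UUG start codon reports start codon fidelity; reporter light over untreated wells divided by growth signal over untreated wells; some hits fall short of that in this replicate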
# PABP polyA inh = PABP poly(A) RNA binding inhibitors, primary screen, biochemical, fluorescence polarization, uHTS | inhibition, % at 35 µM | 290,000 compounds, 1% hits | AID 2014, 2009;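 active = 50% or more with normal probe brightness, or confirmed in later tests; about a fifth of its hits are not listed in these tables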;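 also: calls also rest on retests at 20 µM and on dose response follow-up; controls were probe without protein and protein plus probe with vehicle; some compounds called inactive have numbers as strong as hits; many hits fall short of the cut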
# HIV Env fusion = inhibitors of HIV-1 Env-driven cell-cell fusion, primary screen, HeLa-JRFL effector, CEM21 target cells, luciferase; 360,000 compounds, 1.1% hits; AID 651610, 2012; inhibition, % at 12.3 µM;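 active = mean replicate inhibition score of at least 50 and every replicate individually at or above 50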;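 also: 0% = plate neutral controls and 100% = maraviroc near 300 nM; one replicate is shown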
# CSC inhib = cancer stem cell viability inhibitors, primary screen, luminescence; cancer stem cell-like cells viability; inhibition, % at 7.5 µM; 300,000 compounds, 1.1% hits; AID 2717, 2010;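 active = mean at 75% or more and at least half the replicates too; tested in HMLE shEcad cells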;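 also: 0% = median of negative and 100% = median of positive control wells; the first replicate is given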
# Rce1 inhib = yeast Rce1p protease inhibitors, primary screen, biochemical, fluorescence, cell-free homogeneous. yeast membranes, quenched prenylated peptide cleavage fluorescence. 290,000 compounds, 0.27% hits. calls only. CAAX prenyl protease 2 (Saccharomyces cerevisiae (strain ATCC 204508 / S288c)), Q03530. AID 2563, 2010;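 active = fall in fluorescence gain of 50% or more versus controls, with final raw signal at or below 3038400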;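 also: plate controls were neutral control wells for no effect and wells lacking membranes for full effect; tested at 10 µM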
# Target sequence (Q03530 whole entry, looked up): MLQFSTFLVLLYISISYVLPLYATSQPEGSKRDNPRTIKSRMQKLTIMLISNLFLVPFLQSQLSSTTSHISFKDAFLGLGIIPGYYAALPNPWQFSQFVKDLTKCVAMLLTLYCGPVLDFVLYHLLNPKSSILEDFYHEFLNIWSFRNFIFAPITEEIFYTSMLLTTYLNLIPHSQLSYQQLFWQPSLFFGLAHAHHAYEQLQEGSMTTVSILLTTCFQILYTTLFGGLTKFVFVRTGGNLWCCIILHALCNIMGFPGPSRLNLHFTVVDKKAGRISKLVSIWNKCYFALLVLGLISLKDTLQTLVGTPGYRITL
# eIF4H FP inh = human eIF4H binding inhibitors, primary screen, translation initiation inhibitor project, biochemical, uHTS, fluorescence polarization; Eukaryotic translation initiation factor 4H (Homo sapiens), Q15056; eIF4H fluorescence polarization binding assay; inhibition, % at 35 µM; 290,000 compounds, 0.94% hits; AID 2012, 2009;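 active = 50% or more with normal probe brightness, or confirmed in later tests; about a fifth of its hits are not listed in these tables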;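 also: calls also rest on retests at 20 µM and on dose response follow-up; 0% = protein and probe with vehicle and 100% = probe without protein; strong numbers were not always called active; many hits fall short of the cut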
# MT1-MMP act inh = blockers of MT1-MMP proenzyme processing, primary screen, HT1080 RFP-PRO-GFP cells, GFP/RFP fluorescence; Matrix metalloproteinase-14 (Homo sapiens), P50281; 360,000 compounds, 0.061% hits; GFP/RFP ratio fluorescence, overnight; percent of plate control window, DMSO zero; GFP/RFP ratio change, % at 20 µM;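 active = GFP/RFP ratio change of at least 30% with cell ATP level not reduced by more than half and red fluorescence within 50% of control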; also: strong numbers were not always called active
#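 Assay system: HT1080 RFP-PRO-GFP cells. Benchmarks: DMSO vehicle wells and RFP-L50D-GFP reporter cell wells. Times: overnight cell settling, then overnight compound exposure, 37 °C, 5% CO2. Compound: 20 µM single dose, 1% DMSO. Read-out basis: GFP/RFP fluorescence ratio.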
# eIF4H FP inh retest = recorded beside eIF4H FP inh, whose call it bears; inhibition, %; compound at 20 µM; confirmation average;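 mean of two retest wells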
# PABP polyA inh retest = also measured in PABP polyA inh; calls as there; inhibition, %; compound at 20 µM; confirmation repeats;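 mean of two retest wells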
# MT1-MMP act inh RFP = further read-out of MT1-MMP act inh, marked with its call; RFP signal change, %; measured here: RFP expression control read;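 0 = vehicle wells; hits needed this value within 50% of zero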
# * marks the source's active call; other numbers are inactive results; i = inactive; . = no result given; & = joins results of further samples.
SMILES,UUG fidelity,PABP polyA inh,HIV Env fusion,CSC inhib,Rce1 inhib,eIF4H FP inh,MT1-MMP act inh,MT1-MMP act inh RFP,others
CCCc1ccc(C(O)c2ncc(-c3ccccc3)[nH]2)cc1 (stereo not drawn),-10,.,-15,.,.,.,7,-3,
COCc1cc(C)nc2sc(C(=O)N3CCCCC3)c(N)c12,-13,14,14,-2,i,-4,-1,2,
COc1cc(OC)cc(C(=O)NC2CCN(Cc3nnnn3Cc3ccc(F)cc3)CC2)c1,.,-10,-8,-11,i,1,11,2,
CCc1ccc(N(C2C=CS(=O)(=O)C2)S(=O)(=O)c2ccc(C)cc2)cc1 (stereo not drawn),-19,3,10,4,i,0,8,5,
Cc1ccc(CN2CCN(Cc3ccccc3C(F)(F)F)CC2)cc1,1,21,19,26,i,-4,2,-2,
Cc1cccc(C)c1OCc1nc2ccccc2c(=O)n1/N=C/c1ccc(OCC(=O)O)cc1,.,-1,21,.,i,0,11,9,
COc1ccc(C(=O)COc2ccccc2C(=O)Nc2ccccc2)cc1,-18,-7,13,.,i,-1,-1,-5,
O=C(COc1ncnc2ccccc12)Nc1cc([N+](=O)[O-])ccc1Cl,-9,-6,-1,16,i,-2,5,5,
COc1ccc(N2CCN(C(c3cccs3)C(C)NC(=O)C(=O)N3CCOCC3)CC2)cc1 (stereo not drawn),-17,8,-8,-5,i,5,-1,3,
CC(=O)NN=C1CCC(c2ccccc2)CC1 (stereo not drawn),-14,7,.,-14,i,2,3,2,
Cc1ccccc1CN1CCN(C/C=C/c2ccccc2)CC1,-10,5,.,-11,i,-5,-4,1,
COc1cc(/C=C2/C(=N)N3C(c4ccccc4)=CSC3=NC2=O)ccc1OCC(=O)O,.,2,-6,-5,i,16,-5,2,
COc1ccc(CN(Cc2cc3cc(OC)c(OC)cc3[nH]c2=O)C(=O)NC2CCCCC2)cc1,-1,2,-81,4,.,-10,-15,-16,
Cc1cccc(NC(=S)N2N=CCC2c2ccccc2)c1 (stereo not drawn),-23,7,-161,-9,i,1,-3,-1,
O=C(NC(=S)Nc1ccc(N2CCCCC2)cc1)c1ccco1,-15,-9,.,.,i,-9,3,-1,
COc1cccc(CNC(=O)c2ccccc2-c2ccccc2)c1,-1,9,0,-7,i,3,2,-1,
Nc1nc(N)c(N=Nc2ccc(S(N)(=O)=O)cc2)c(=O)[nH]1,-14,16,7,-12,i,-7,5,2,
CCN(CC)c1ccc(/C=N/NC(=O)c2ccc3nc[nH]c3c2)c(O)c1,-35,-2,.,106*,.,20,5,-1,
COc1ccc(NC(=O)C2CCCN(S(C)(=O)=O)C2)cc1OC (stereo not drawn),2,-3,6,-5,i,-6,-4,2,
COCCN1C[C@@H](CO)O[C@@H](n2cnc3c(N4CCOCC4)ncnc32)C1,-5,.,-4,.,.,.,1,2,
COc1cc(C(=O)N2CCCC(c3nc(-c4cccs4)no3)C2)cc(OC)c1OC (stereo not drawn),-5,3,37,.,i,9,3,1,
Cc1cc(C)cc(NC(=S)N2CC(C)OC(C)C2)c1 (stereo not drawn),-33,-9,8,-7,i,12,1,3,
COc1ccc(OCCSc2nc(N)cc(N)n2)cc1,4,9,-109,-9,i,2,10,3,
COc1ccc(-c2ccc(-c3nc4ccc(C)cn4c3NC3CCCCC3)cc2OC)cc1,-5,.,41&34,17,i,.,5&7,-26&-14,
Cn1c2ccccc2c(=O)c2cc(C#Cc3ccc(N)cc3)ccc21,-17,-9,-56,46,i,-4,6,1,

# Carrying on:
SMILES,UUG fidelity,PABP polyA inh,HIV Env fusion,CSC inhib,Rce1 inhib,eIF4H FP inh,MT1-MMP act inh,MT1-MMP act inh RFP,others
COc1ccc(NCC(=O)N/N=C/C=C/c2ccccc2[N+](=O)[O-])cc1,-13,66*,-1,8,i,-2,-1,-1,eIF4H FP inh retest=-6;PABP polyA inh retest=86*
COc1cccc(C(=O)N2CCN(C3CCCCC3)CC2)c1,-13,5,8,-5,i,8,0,2,
Cc1ccc(CN2CC34C=CC(O3)C(C(=O)NCc3ccco3)C4C2=O)cc1 (stereo not drawn),-4,1,-35,-2,i,6,0,5,
CCOC(=O)C(Cc1ccccc1)NC(=O)CCc1c(C)nc2nc(C)nn2c1C (stereo not drawn),-17,4,-40,5,.,3,3,2,
Cc1cc2ccccc2nc1Br,.,-3,-26,0,i,-5,-3,3,
CCn1c(SCC(=O)NC(C)c2ccccc2)nc2ccccc21 (stereo not drawn),-11,-8,.,-4,i,-8,-4,1,
C/C(=N\NC(=O)CC1N=C(Cc2ccccc2)NNC1=O)c1ccc(C)cc1 (stereo not drawn),372*,-3,.,15,i,-9,-3,-1,
COc1ccc(-c2cc3nc(NCCNC(C)=O)n(C)c(=O)c3s2)c(C)c1,-7,.,-27,.,.,.,3,0,
O=C(COC(=O)Cc1c(F)cccc1Cl)NC(=O)c1ccccc1,-16,-10,4,.,i,0,2,6,
COc1cc(CCC(=O)NCc2ccc(F)cc2)cc(OC)c1OC,-13,12,5,-1,i,0,-3,-2,
CC(=O)C1=C(C)NC(=O)CC1c1ccc(F)cc1 (stereo not drawn),-7,-6,-2,2,i,-6,-5,-1,
COC(=O)c1sccc1NC(=O)Nc1ccc(OC)cc1,-31,-1,-2,4,i,-6,1,2,
CS(=O)(=O)Nc1ccccc1C(=O)OCC(=O)NCc1cccs1,.,.,11,-7,.,.,1,1,
CC1CN(S(=O)(=O)c2ccc(Cl)c(S(=O)(=O)N3CC(C)OC(C)C3)c2)CC(C)O1 (stereo not drawn),-12,0,3,3,i,3,5,-1,
Cn1ccnc1SCc1cn2ccccc2n1,-26,58,.,.,i,32,2,6,eIF4H FP inh retest=30;PABP polyA inh retest=32
Cc1ccccc1Nc1c(-c2ccccc2)nc2ncccn12,.,6,-11,-12,i,-7,5,-1,
COc1cc(/C=N/n2nnnc2N)ccc1OCc1c(C)no[n+]1[O-],.,2,.,-10,i,-8,1,-3,
COc1cc(NC(=O)c2cccc(Cl)c2)c(OC)cc1NC(=O)CN1CCCCC1,.,8,13,-5,i,-4,7,2,
CCN(CC)S(=O)(=O)c1cc(F)ccc1OC,-19,-6,.,-11,.,-3,-1,2,
O=c1nc(-c2ccccc2)c2ccccc2[nH]1,-24,-10,.,-11,.,-2,-2,4,
O=C(c1cnn2c(C(F)F)cc(-c3ccccc3)nc12)N1CCOCC1,-14,9,-37,-7,i,3,7,0,
CCOC(=O)N1CCC(Nc2c(NCCCN3CCN(C4CCCCC4)CC3)c(=O)c2=O)CC1,.,1,1,-18,i,0,4,2,
COc1cccc(CN2CCN(CCCc3ccccc3)C(CCO)C2)c1O (stereo not drawn),-25,-1,6,-2,i,-5,-1,0,
CSc1ccc(/C=N/n2c(COc3ccccc3)n[nH]c2=S)cc1,-29,-4,0,-4,i,9,-2,0,
COc1ccc(/C=N/NC(=O)c2cccnc2)cc1CN1CCCc2ccccc21,.,20,16,0,i,-4,1,1,

# Other results:
SMILES,UUG fidelity,PABP polyA inh,HIV Env fusion,CSC inhib,Rce1 inhib,eIF4H FP inh,MT1-MMP act inh,MT1-MMP act inh RFP,others
Cc1ccc(NC(=O)CSc2nc3ccccc3c3nc4ccccc4n23)cc1,0,8,-89,2,i,5,-4,-9,
COc1ccc(-c2cc(N3C(=O)Nc4ccccc4N3O)n[nH]2)cc1,1,-14,30,-17,i,-10,-9,-5,
Cc1cc(OCC(=O)NNC(=S)NC(=O)c2cccs2)ccc1Cl,-23,-4,-14,3,i,2,7,3,
O=C1N2CCSC2=NC1(NS(=O)(=O)c1ccccc1)C(F)(F)F (stereo not drawn),-10,-4,.,0,i,-6,3,4,
COc1cc(O)oc1C=Nc1ccc(Cl)cc1,3,9,13,42,.,-9,1,1,
CCOc1ccc(Nc2nc(NCCN3CCOCC3)nc(OC)n2)cc1,4,-10,-2,-14,i,3,0,2,
O=C(/C=C/c1ccccc1)N1CCOCC1,-6,-3,0,-14,i,-11,0,-1,
Cc1ccc(NC(=O)CSc2nnc(-c3cccnc3)o2)c(C)c1,.,.,-33,-5,i,.,8,7,
CCOC(=O)Cn1nc(C(F)F)c(Br)c1C,.,-1,16,-10,i,2,-1,0,
Cc1cc[n+](-c2nc([O-])sc2/C=N/Nc2ccc([N+](=O)[O-])cc2)cc1,-20,28,.,0,.,35,-2,-2,
O=C(CCCCCN1C(=O)[C@@H]2Cc3ccccc3CN2C1=O)NCCc1ccccc1,.,-10,3,-18,i,-10,0,4,
CCCCN(C)C(=O)c1ccc(Nc2nc(C(N)COCc3ccccc3)cs2)nc1 (stereo not drawn),-7,.,i,.,.,.,-4,-2,
Cc1nc2ccc(C(=O)Nc3cccc([N+](=O)[O-])c3)cc2s1,-2,-3,-6,8,i,-9,3,-6,
Cc1ccc(NC(=S)NNC(=O)c2ccco2)cc1,.,5,-18,-4,.,-7,1,1,
Cc1cc(O)cc2c(=O)c3ccccc3sc12,.,2,-30,-4,i,-8,-3,0,
COc1cccc(CC(=S)N2CCOCC2)c1,-11,-6,.,-12,i,-2,5,4,
COc1cc(/C=C/C(=O)OCC(=O)NC(=O)NC2CCCCC2)ccc1OC(F)F,-11,-6,18,-1,i,1,3,6,
CN(C)c1ccc(C(O)P(=O)(OCc2ccccc2)c2ccc(N(C)C)cc2)cc1 (stereo not drawn),-14,0,8,5,i,-5,1,2,
C=CCOc1c(Cl)cc(CNn2cn[nH]c2=S)cc1OC,.,7,1,32,i,9,3,-3,
COc1ccc(-c2nn(-c3ccccc3)cc2C(=O)N2CCN(S(=O)(=O)c3cccc(F)c3)CC2)cc1,.,.,-19,.,i,.,-3,-6,
Cc1nn(C(=O)c2ccco2)c(C)c1Sc1ccc([N+](=O)[O-])cc1,-6,1,.,-13,i,-5,3,-8,
CC(C(=O)N1CC2(C)CC1CC(C)(C)C2)N1C(=O)c2ccccc2C1=O (stereo not drawn),-12,-4,.,.,i,-13,2,3,
C=CCN1C(=O)c2ccc(C(=O)N(C)CC(=O)Nc3cccc(F)c3)cc2C1=O,-19,-11,.,.,i,-3,-3,1,
COc1ccc(-c2ccc3c(c2)C2CC3CCN2CCC#N)cc1 (stereo not drawn),-30,.,19,.,.,.,0,-1,
COc1cc(NC(=O)c2ccc(Br)o2)c(C(=O)O)cc1OC,-17,17,.,.,i,4,3,0,
O=C(NNC(=O)c1ccco1)c1ccco1,-13,.,-18,.,.,.,1,5,
Cc1ccc(/C=C/C(=O)Nc2cc(=O)n(C)c(=O)n2C)o1,.,7,-5,-6,i,49,-11,3,
Clc1ccc(-c2ccc(/C=N/Nc3cc(N4CCOCC4)nc(N4CCOCC4)n3)o2)cc1,5,-7,.,93*,i,-5,-6,-9,
COc1cc(C(=O)N/C(=C\c2cn(C)c3ccccc23)C(=O)NCCN2CCOCC2)cc(OC)c1OC,-1,.,-2,-19,i,.,-8,-4,
O=C(O)c1ccc(CSc2nnnn2C2CCCCC2)cc1,-19,8,3,-15,i,0,6,2,

# Of the compounds above, 2 have a CF3 group.
SMILES,UUG fidelity,PABP polyA inh,HIV Env fusion,CSC inhib,Rce1 inhib,eIF4H FP inh,MT1-MMP act inh,MT1-MMP act inh RFP,others
Cc1ccc(CN2CCN(Cc3ccccc3C(F)(F)F)CC2)cc1,1,21,19,26,i,-4,2,-2,
O=C1N2CCSC2=NC1(NS(=O)(=O)c1ccccc1)C(F)(F)F (stereo not drawn),-10,-4,.,0,i,-6,3,4,
